Vaccinia inh: Vaccinia orthopox stage-specific inhibition; 89,000 compounds, 0.01% hits; Vaccinia-infected cells, mCherry/Venus stage reporter fluorescence; active compounds read low; some inactives read as strong as hits; activity change (mCherry), % (no concentration beside the values);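 active = mCherry past -33% and 40 or more points under the early reporter, replicates agreeing; inconclusive = past -33% without that gap or agreement; tested in A549 cells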;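 also: scaled between vehicle wells and reference inhibitor wells; 23 nL library stock went into each well; one replicate is shown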
Vaccinia inh Venus: further read-out of Vaccinia inh, marked with its call; activity change (Venus), %; measured here: Venus reporter, other viral stage;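 negative = less Venus signal; first of two replicates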
* = called active by the depositor; ? = inconclusive; · = not tested or not shown; & = joins results of further samples.

mol | Vaccinia inh Venus | Vaccinia inh
C[C@H]1CN([C@@H](C)CO)C(=O)c2cccc(NC(=O)Nc3ccc(F)cc3)c2O[C@@H]1CN(C)Cc1ccc(C(=O)O)cc1 | 11 | 2
CCS(=O)(=O)N1CCCCN2[C@@H](CO)[C@@H](c3ccc(-c4ccccc4C)cc3)[C@@H]2C1 | -22 | -27
C[C@H](CO)N1C[C@H](C)[C@@H](CN(C)Cc2ccccc2)Oc2c(cccc2N(C)C)C1=O | 10 | 8
Cc1ccccc1-c1ccc([C@@H]2[C@H](CO)N3CCCCN(C(=O)c4cccnc4)C[C@@H]23)cc1 | -17 | -23
Cc1noc(C)c1NC(=O)Nc1ccc2c(c1)C(=O)N([C@H](C)CO)C[C@@H](C)[C@@H](CN(C)Cc1ccc(Oc3ccccc3)cc1)O2 | -2 | -7
COc1cccc(NC(=O)N[C@H]2C=C[C@H](CC(=O)N3CCN(C)CC3)O[C@@H]2CO)c1 | 8 | 20
O=C(Nc1cc(F)ccc1F)N1CCCCN2[C@H](CO)[C@H](c3ccc(-c4cncnc4)cc3)[C@@H]2C1 | 18 | 45
O=C(Cc1ccccn1)N1CCCCN2[C@@H](CO)[C@H](c3ccc(-c4ccccc4F)cc3)[C@@H]2C1 | -23 | -20
C[C@@H]1CN([C@@H](C)CO)C(=O)c2cc(NC(=O)C3CCCCC3)ccc2O[C@@H](C)CCCCO[C@@H]1CN(C)S(=O)(=O)c1ccccc1 | -3 | -1
C[C@@H]1CN([C@@H](C)CO)S(=O)(=O)c2ccc(-c3cccnc3)cc2O[C@@H]1CN(C)C(=O)C1CCC1 | 1 | 12
O=C(C[C@@H]1C[C@H]2c3cc(NC(=O)C4CCC4)ccc3O[C@H]2[C@H](CO)O1)NCc1ccc2c(c1)OCO2 | 9 | 8
CC(C)NC(=O)Nc1ccc2c(c1)C(=O)N([C@H](C)CO)C[C@@H](C)[C@@H](CN(C)C(=O)Nc1ccccc1)OCCCC[C@@H](C)O2 | -5 | 10
O=C(Cc1cccnc1)N1CC(=O)N2[C@H](C1)[C@H](c1ccc(C3=CCCC3)cc1)[C@@H]2CO | 3 | 2
C[C@H]1CN([C@@H](C)CO)C(=O)Cc2cc(NS(=O)(=O)c3ccc(F)cc3)ccc2O[C@H]1CN(C)C(=O)NC1CCCCC1 | 5 | -1
COc1ccc(NC(=O)Nc2ccc3c(c2)C(=O)N([C@H](C)CO)C[C@@H](C)[C@@H](CN(C)S(=O)(=O)c2cccs2)O3)cc1 | -17 | -28
C[C@H](NC(=O)C[C@H]1CC[C@H]2[C@@H](COC[C@H](O)CN2C(=O)Nc2cc(Cl)cc(Cl)c2)O1)c1ccccc1 | · | ?
CNC[C@@H]1Oc2ccc(NC(=O)Nc3c(C)noc3C)cc2C(=O)N([C@@H](C)CO)C[C@@H]1C | -4 | 2
C[C@H](CO)N1C[C@H](C)[C@@H](CN(C)Cc2ccc(-c3ccccc3)cc2)Oc2c(NC(=O)NC3CCCCC3)cccc2C1=O | -8 | -13
CN1[C@H](C(=O)NC2CCCC2)[C@@H](CO)[C@@H]2Cn3c(ccc(-c4cccc(F)c4)c3=O)[C@@H]21 | 2 | 6
C[C@@H]1CN([C@@H](C)CO)C(=O)c2cc(NC(=O)Cc3cn(C)c4ccccc34)ccc2O[C@@H]1CN(C)C(=O)Nc1ccc(F)cc1 | 3 | 9
Cc1noc(C)c1S(=O)(=O)N(C)C[C@@H]1Oc2c(NS(=O)(=O)c3cn(C)cn3)cccc2C(=O)N([C@@H](C)CO)C[C@@H]1C | 3 | 5
CN1CCCCN2[C@H](CO)[C@@H](c3ccc(C#CC4(O)CCCC4)cc3)[C@@H]2C1 | 3 | 12
CCNC(=O)C[C@@H]1CC[C@@H](NS(=O)(=O)c2ccc(C)cc2)[C@H](CO)O1 | 7 | 6
CN(C)CC(=O)Nc1ccc2c(c1)[C@H]1C[C@H](CC(=O)NCc3ccccc3)O[C@@H](CO)[C@H]1O2 | 1 | 10
O=C(C[C@@H]1CC[C@@H](NS(=O)(=O)c2ccc(F)cc2)[C@@H](CO)O1)NCc1ccncn1 | -11 | -5
CC(C)CC#Cc1ccc([C@@H]2[C@@H](CO)N3C(=O)CN(C(=O)c4cnccn4)C[C@@H]23)cc1 | 6 | 9
CN(C)C(=O)c1cccc(-c2ccc3c(c2)[C@@H]2[C@@H](CCN2C(=O)c2cnccn2)[C@H](CO)N3)c1 | 20 | 23
C[C@@H]1CN([C@H](C)CO)C(=O)c2cc(NC(=O)c3ccccc3)ccc2O[C@@H](C)CCCCO[C@H]1CN(C)S(=O)(=O)c1cn(C)cn1 | 3 | 7
CCCNC(=O)N1[C@@H](CO)[C@H](c2ccccc2)C12CN(C(=O)c1cccnc1)C2 | 22 | 18
COc1ccc2c3c(n(C)c2c1)[C@H](CO)NCC31CCN(C(=O)Nc2ccccc2F)CC1 | · | ?

Single records, from the list above.
Listed for `CCNC(=O)C[C@@H]1CC[C@@H](NS(=O)(=O)c2ccc(C)cc2)[C@H](CO)O1` : Vaccinia inh Venus = 7; Vaccinia inh = 6
Listed for `CC(C)CC#Cc1ccc([C@@H]2[C@@H](CO)N3C(=O)CN(C(=O)c4cnccn4)C[C@@H]23)cc1` : Vaccinia inh Venus = 6; Vaccinia inh = 9

(cont.)
mol | Vaccinia inh Venus | Vaccinia inh
COc1ccc(NC(=O)Nc2ccc3c(c2)C(=O)N([C@@H](C)CO)C[C@@H](C)[C@@H](CN(C)S(=O)(=O)c2ccc(C)cc2)OCCCC[C@H](C)O3)cc1 | 2 | -3
Cc1noc(C)c1S(=O)(=O)Nc1ccc2c(c1)C(=O)N([C@@H](C)CO)C[C@@H](C)[C@H](CN(C)Cc1ccc3c(c1)OCO3)OCCCC[C@H](C)O2 | · | ?
C[C@@H]1CCCCO[C@H](CN(C)S(=O)(=O)c2ccccc2)[C@H](C)CN([C@@H](C)CO)C(=O)c2cc(NC(=O)Nc3ccc4c(c3)OCO4)ccc2O1 | 4 | 9
CO[C@H]1CN(C)C(=O)c2cc(NS(=O)(=O)c3ccc(C)cc3)ccc2OC[C@H](C)N(C)C[C@H]1C | -5 | -2
C[C@@H]1CN([C@H](C)CO)C(=O)c2cc(C3=CCCC3)cnc2O[C@@H]1CN(C)Cc1ccccn1 | 2 | 13
COc1ccc(CN(C)C[C@H]2OCCCC[C@H](C)Oc3ccc(NC(=O)c4ccncc4)cc3C(=O)N([C@H](C)CO)C[C@H]2C)cc1 | -8 | -9
C[C@@H]1CCCCO[C@H](CN(C)C(=O)c2ccccc2)[C@@H](C)CN([C@@H](C)CO)C(=O)c2cc(NC(=O)c3ccncc3)ccc2O1 | 8 | 8
COc1cccc(CN2[C@@H]3CNC[C@H]2C3c2ccc(-c3cccc(C#N)c3)cc2)c1 (stereo not given in full) | -3&-15 | -6&-19
CC(C)NC(=O)N1CCCCN2[C@H](C1)[C@H](c1ccc(C#C[C@H](C)O)cc1)[C@@H]2CO | 14 | 24
CC(C)NC(=O)N(C)C[C@H]1OCCCC[C@H](C)Oc2ccc(NC(=O)CCCN(C)C)cc2C(=O)N([C@H](C)CO)C[C@@H]1C | 24 | 26
CN1CCN(C(=O)C[C@H]2CC[C@@H](NC(=O)c3ccc4c(c3)OCO4)[C@H](CO)O2)CC1 | 9 | 4
COc1ccccc1CNC(=O)C[C@H]1C[C@H]2c3cc(NS(C)(=O)=O)ccc3O[C@H]2[C@H](CO)O1 | 0 | 4
C/C=C/c1ccc([C@H]2[C@H]3CN(C(=O)c4ccccc4)CC(=O)N3[C@H]2CO)cc1 | 12 | 19
C[C@@H]1CN([C@@H](C)CO)C(=O)c2cc(C3=CCCC3)cnc2O[C@@H]1CN(C)C(=O)c1ccccn1 | 12 | 21
COCCN(C[C@@H]1N[C@@H](CO)[C@@H]1c1ccc(-c2cccnc2)cc1)C(C)=O | 7 | 7
C[C@H](CO)N1C[C@H](C)[C@@H](CN(C)Cc2ccc(-c3ccccc3)cc2)Oc2ccc(NC(=O)Nc3ccccc3)cc2C1=O | · | ?
CCCNC(=O)N1C[C@@H]2[C@H](c3ccccc31)[C@@H](CO)N2C(=O)Cc1ccccn1 | 7 | 6
O=S(=O)(N[C@@H]1CC[C@H](CCn2cc(-c3ccccc3F)nn2)O[C@H]1CO)c1ccc(Cl)cc1 | -25 | -32
COCC#Cc1cnc2c(c1)C(=O)N([C@@H](C)CO)C[C@@H](C)[C@@H](CN(C)C(=O)C1CC1)O2 | 8 | 12
O=C(C[C@@H]1CC[C@@H](NC(=O)c2cccc(F)c2)[C@H](CO)O1)NCCN1CCCC1 | -2 | 1

An excerpt from above in order of molar mass, high to low:
mol | Vaccinia inh Venus | Vaccinia inh
O=S(=O)(N[C@@H]1CC[C@H](CCn2cc(-c3ccccc3F)nn2)O[C@H]1CO)c1ccc(Cl)cc1 | -25 | -32
COCC#Cc1cnc2c(c1)C(=O)N([C@@H](C)CO)C[C@@H](C)[C@@H](CN(C)C(=O)C1CC1)O2 | 8 | 12
CN1CCN(C(=O)C[C@H]2CC[C@@H](NC(=O)c3ccc4c(c3)OCO4)[C@H](CO)O2)CC1 | 9 | 4

Next records.
mol | Vaccinia inh Venus | Vaccinia inh
CC(=O)N(C)C[C@@H]1Oc2ncc(-c3ccc(C(=O)N(C)C)cc3)cc2C(=O)N([C@@H](C)CO)C[C@H]1C | 10 | 9
CCCC(=O)Nc1ccc2c(c1)C(=O)N(C)C[C@@H](OC)[C@@H](C)CN(Cc1ccc(-c3ccccn3)cc1)[C@@H](C)CO2 | -23 | -29
CCC(=O)Nc1ccc2c(c1)C(=O)N(C)[C@H]1CC[C@@H](CC(=O)NCCc3ccncc3)O[C@H]1CO2 | 8 | 14
COc1ccc(CN(C)C[C@@H]2Oc3ccc(NS(=O)(=O)c4c(C)noc4C)cc3CC(=O)N([C@@H](C)CO)C[C@H]2C)cc1 | -11 | -8
O=C(N[C@@H]1CC[C@H](CCn2cc(-c3ccccc3)nn2)O[C@@H]1CO)c1cnccn1 | 2 | -2
CO[C@H](CCO)[C@H](O)c1ccc(O)c(F)c1 | 2 | 15
CC(C)C#Cc1ccc([C@@H]2[C@@H](CO)N3CCCCN(C(=O)c4ccc(F)cc4)C[C@H]23)cc1 | -2 | 10
O=C(N[C@@H]1CC[C@@H](CCNS(=O)(=O)c2ccc(Cl)cc2)O[C@@H]1CO)c1ccccn1 | 1 | -5
CN1CCN(C(=O)C[C@@H]2CC[C@@H]3[C@H](COC[C@H](O)CN3C(=O)Nc3ccc(F)cc3)O2)CC1 | 6 | 9
CNC[C@@H]1Oc2c(NC(=O)Nc3ccc(C(F)(F)F)cc3)cccc2C(=O)N([C@@H](C)CO)C[C@@H]1C | -10 | -15
COc1ccc(CNC(=O)C[C@@H]2CC[C@H](NC(=O)c3ccc4c(c3)OCO4)[C@@H](CO)O2)cc1 | -7 | -5
C[C@H](O)C#Cc1ccc([C@H]2[C@@H](CO)N3CCCCN(C(=O)c4ccc5c(c4)OCO5)C[C@H]23)cc1 | -3 | 4
COCC(=O)N1[C@H](CO)[C@@H](c2ccccc2-c2ccc(C)cc2)[C@@H]1C#N | -23 | -22
C[C@H]1CN([C@@H](C)CO)C(=O)Cc2cc(NC(=O)Nc3ccc(F)cc3)ccc2O[C@H]1CN(C)Cc1ccc(C(=O)Nc2ccccc2N)cc1 | -9 | -26
COCC#Cc1cnc2c(c1)C(=O)N([C@@H](C)CO)C[C@@H](C)[C@@H](CN(C)Cc1ccc3c(c1)OCO3)O2 | -6 | -2
O=C(C[C@H]1C[C@H]2c3cc(NS(=O)(=O)c4ccc(F)cc4)ccc3O[C@H]2[C@@H](CO)O1)NCc1cccnc1 | -2 | 3
C[C@@H]1CN([C@@H](C)CO)C(=O)c2cc(NS(=O)(=O)c3ccccc3)ccc2O[C@H]1CN(C)Cc1ccc(Cl)c(Cl)c1 | · | ?
COc1ccc(S(=O)(=O)N(C)C[C@@H]2OCCCC[C@@H](C)Oc3ccc(NC(=O)NC4CCCCC4)cc3C(=O)N([C@@H](C)CO)C[C@H]2C)cc1 | 2 | 19
CN(C)CC(=O)Nc1ccc2c(c1)[C@H]1C[C@H](CC(=O)NCc3ccccc3)O[C@H](CO)[C@H]1O2 | -6 | 0
CO[C@H]1CN(C)C(=O)c2cc(NS(C)(=O)=O)ccc2OC[C@@H](C)N(C(=O)C2CCCCC2)C[C@H]1C | 4 | 6
COCCNC(=O)C[C@H]1CC[C@@H]2[C@@H](COc3ccc(NC(=O)Nc4ccccc4)cc3C(=O)N2C)O1 | 5 | 4
COc1ccc(NC(=O)Nc2ccc3c(c2)C(=O)N([C@@H](C)CO)C[C@@H](C)[C@@H](CN(C)Cc2ccc4c(c2)OCO4)OCCCC[C@@H](C)O3)cc1 | · | ?
Cc1noc(C)c1S(=O)(=O)N(C)C[C@H]1Oc2ccc(NS(=O)(=O)c3ccc(Cl)cc3)cc2CC(=O)N([C@@H](C)CO)C[C@@H]1C | 2 | 9
C[C@@H](NC(=O)C[C@H]1C=C[C@@H](NC(=O)C2CCOCC2)[C@H](CO)O1)c1ccccc1 | -18 | -8
C[C@H](CO)N1C[C@H](C)[C@@H](CN(C)Cc2ccc(C(F)(F)F)cc2)Oc2ccc(NC(=O)Nc3cccc4ccccc34)cc2CC1=O | 10 | -2
CC(C)C#Cc1ccc2c(c1)O[C@@H](CN(C)C(=O)c1cccnc1)[C@H](C)CN([C@@H](C)CO)S2(=O)=O | -6 | -3
C[C@H]1CN([C@@H](C)CO)C(=O)c2cccc(NS(=O)(=O)c3cn(C)cn3)c2O[C@H]1CN(C)Cc1ccccc1 | 1 | 1
C[C@@H]1CN([C@@H](C)CO)C(=O)c2cc(NC(=O)Cc3cn(C)c4ccccc34)ccc2O[C@@H]1CN(C)S(C)(=O)=O | -3 | -8
Cc1noc(C)c1S(=O)(=O)N(C)C[C@@H]1Oc2ccc(NS(=O)(=O)c3ccc(F)cc3)cc2CC(=O)N([C@@H](C)CO)C[C@@H]1C | 8 | 11

High-throughput results deposited in PubChem by Broad Institute.

Only part of the results is shown; count on the stated rates, not on these rows.
